FGF22 binding = binders of human FGF22 protein, primary screen, FGF22 synaptogenesis inhibitor project, biophysical, thermal shift, single point | Fibroblast growth factor 22 (Homo sapiens), Q9HCT0 | recombinant FGF22 thermal shift, SYPRO orange fluorescence; percent of sucrose octasulfate shift, DMSO zero | calls only at 9.99 µM | actives 1.5% (n = 340,000) | AID 651658, 2012;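 active = melting point raised past a set limit in the mean and every replicate; three in four hits are not shown here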
Target sequence (Q9HCT0 whole entry, looked up): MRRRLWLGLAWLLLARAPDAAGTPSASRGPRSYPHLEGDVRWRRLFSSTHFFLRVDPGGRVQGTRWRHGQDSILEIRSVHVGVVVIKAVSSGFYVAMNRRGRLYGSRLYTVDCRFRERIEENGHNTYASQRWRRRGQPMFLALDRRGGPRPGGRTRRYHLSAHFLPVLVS
MLL AF4-AF9 inh = inhibitors of AF4 peptide binding to AF9, primary screen, biochemical, AlphaScreen, biotin-AF4 peptide, FLAG-AF9, single point; actives 0.47% (n = 350,000); Protein AF-9 (Homo sapiens), P42568; inhibition, % at 10 µM;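 active = every replicate reaching a set inhibition limit, whatever the replicate mean, cut at about 25% in these data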;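 note: 0% = plate neutral control median and 100% = total signal loss; the record names both 10 and 1 µM as test concentration; the first replicate is given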
Target sequence (P42568 whole entry, looked up): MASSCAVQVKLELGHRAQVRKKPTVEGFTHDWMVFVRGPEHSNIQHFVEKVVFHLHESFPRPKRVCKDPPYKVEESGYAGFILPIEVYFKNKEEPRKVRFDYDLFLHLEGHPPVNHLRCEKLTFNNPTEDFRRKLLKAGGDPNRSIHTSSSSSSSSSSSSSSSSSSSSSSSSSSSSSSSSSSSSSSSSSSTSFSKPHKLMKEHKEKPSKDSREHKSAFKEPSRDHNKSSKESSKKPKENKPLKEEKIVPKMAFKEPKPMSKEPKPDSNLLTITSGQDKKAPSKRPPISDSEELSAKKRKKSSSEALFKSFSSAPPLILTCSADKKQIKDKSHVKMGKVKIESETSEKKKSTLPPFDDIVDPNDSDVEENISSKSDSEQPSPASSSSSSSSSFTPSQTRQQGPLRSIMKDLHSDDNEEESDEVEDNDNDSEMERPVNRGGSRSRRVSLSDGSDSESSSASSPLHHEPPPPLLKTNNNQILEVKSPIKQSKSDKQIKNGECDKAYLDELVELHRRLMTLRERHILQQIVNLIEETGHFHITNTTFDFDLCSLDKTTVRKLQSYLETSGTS
Ecoli rRNA inh = reduced GFP signal of wild-type E. coli, primary screen, bacterial rRNA inhibitor project, GFP/RFP fluorescence, OD600, single point. GFP signal change (wild-type ribosome), % (concentration not given with the values). E. coli WT GFP vs humanized-ribosome RFP mutants, 24 h; stronger effect = lower value; DMSO median 0, no signal -100. actives 1.6% (n = 350,000);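 active = significant combined selectivity score with lowered wild-type GFP, culture density cut under 30%, mutant RFP and density less affected; inactive = any of these conditions unmet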; note: one replicate is shown; some compounds called inactive have numbers as strong as hits
Ecoli rRNA inh OD600 = also measured in Ecoli rRNA inh; calls as there; OD600 change, %; measured here: OD600 growth;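 optical density of the mix in the first replicate; 0 = DMSO median and -100 = no signal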
Ecoli rRNA inh RFP = also measured in Ecoli rRNA inh; calls as there; RFP signal change, %; measured here: RFP humanized mutant strains;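 first replicate; 0 = DMSO median and -100 = no signal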
* = called active by the depositor.

CCOC(=O)[C@]12CCC=C1N(Cc1ccc3c(c1)OCO3)C(=O)[C@H](CC(=O)NCCCOC)C2 was read as FGF22 binding inactive, MLL AF4-AF9 inh -1.5, Ecoli rRNA inh 6, Ecoli rRNA inh OD600 14 and Ecoli rRNA inh RFP 1.0.
Screening COc1cccc(NC(=O)N2CC(=O)N3[C@@H](CO)[C@@H](c4ccc(C#CCC5CCCC5)cc4)[C@@H]3C2)c1 returned FGF22 binding inactive, MLL AF4-AF9 inh 0.4, Ecoli rRNA inh -1, Ecoli rRNA inh OD600 7 and Ecoli rRNA inh RFP -1.2.
`CC1CCCCN1S(=O)(=O)c1cc2c(=O)nc3ccccn3c2cc1Cl` (configuration not stated) gave FGF22 binding inactive, MLL AF4-AF9 inh -7.8, Ecoli rRNA inh 0, Ecoli rRNA inh OD600 10 and Ecoli rRNA inh RFP 1.5.
O=C1NC[C@H](CCCCN2C[C@@H](Cc3ccccc3)N(CCC3CCCCC3)C(=O)C2=O)N(CCC2CCCCC2)C1=O was read as FGF22 binding inactive, MLL AF4-AF9 inh -1.5, Ecoli rRNA inh 11, Ecoli rRNA inh OD600 3 and Ecoli rRNA inh RFP -4.9.
For C[C@H](CO)N1C[C@H](C)[C@@H](CN(C)S(=O)(=O)c2ccc(Cl)cc2)Oc2ccc(NS(=O)(=O)c3ccc(Cl)cc3)cc2CC1=O the results were FGF22 binding inactive, MLL AF4-AF9 inh 1.8, Ecoli rRNA inh -1, Ecoli rRNA inh OD600 3 and Ecoli rRNA inh RFP 1.5.
Cc1ccc([C@H]2C[C@H](O)[C@@H](n3cc(-c4ccc(F)cc4)nn3)CN2CC2CCCCC2)cc1 was read as FGF22 binding inactive, MLL AF4-AF9 inh -0.5, Ecoli rRNA inh 6, Ecoli rRNA inh OD600 0 and Ecoli rRNA inh RFP -2.8.
Screening CC=Cc1ccc2n(c1=O)C[C@@H]1[C@@H](CO)[C@H](C(=O)NCc3ccc(F)cc3)N(CC)[C@H]21 (mixture of isomers) returned FGF22 binding inactive, MLL AF4-AF9 inh -0.9, Ecoli rRNA inh -2, Ecoli rRNA inh OD600 6 and Ecoli rRNA inh RFP -3.7.
CCOc1ccc(Cl)cc1-c1cc(C(=O)NCc2cc(C(F)(F)F)cc(C(F)(F)F)c2)[nH]n1 was read as FGF22 binding inactive, MLL AF4-AF9 inh -0.3, Ecoli rRNA inh 11, Ecoli rRNA inh OD600 21 and Ecoli rRNA inh RFP 2.2.
For C[C@H](CO)N1C[C@H](C)[C@H](CN(C)C)Oc2c(NS(=O)(=O)c3cn(C)cn3)cccc2C1=O the results were FGF22 binding inactive, MLL AF4-AF9 inh -1.7, Ecoli rRNA inh 1, Ecoli rRNA inh OD600 -2 and Ecoli rRNA inh RFP 6.8.
COc1cccc(C#Cc2cnc3c(c2)C(=O)N([C@@H](C)CO)C[C@@H](C)[C@H](CN(C)C(=O)C2CCC2)O3)c1 was read as FGF22 binding inactive, MLL AF4-AF9 inh 2.4, Ecoli rRNA inh 0, Ecoli rRNA inh OD600 -6 and Ecoli rRNA inh RFP 6.6.
`CN(C)C(=O)C[C@@H]1CC[C@H]2[C@H](COc3ccc(NC(=O)C4CCCCC4)cc3C(=O)N2C)O1` gave FGF22 binding inactive, MLL AF4-AF9 inh -3.0, Ecoli rRNA inh 2, Ecoli rRNA inh OD600 0 and Ecoli rRNA inh RFP 0.2.
For CO[C@H]1CN(C)C(=O)c2cc(NC(=O)Nc3c(C)noc3C)ccc2OC[C@H](C)N(C)C[C@@H]1C the results were FGF22 binding inactive, MLL AF4-AF9 inh 0.5, Ecoli rRNA inh 0, Ecoli rRNA inh OD600 -2 and Ecoli rRNA inh RFP -0.1.
Screening COc1ccccc1C(CNC(=O)C(CCSC)NC(=O)c1ccccc1Cl)N1CCCC1 (configuration not stated) returned FGF22 binding inactive, MLL AF4-AF9 inh 8.6, Ecoli rRNA inh 11, Ecoli rRNA inh OD600 11 and Ecoli rRNA inh RFP -2.0.
CC(C)CNc1ncnc2c1ncn2[C@H]1CN(Cc2ccc(F)cc2)C[C@@H](CO)O1 was read as FGF22 binding inactive, MLL AF4-AF9 inh 2.2, Ecoli rRNA inh -2, Ecoli rRNA inh OD600 1 and Ecoli rRNA inh RFP 3.2.
`C[C@H]1CN([C@@H](C)CO)C(=O)Cc2cc(NC(=O)Cc3cn(C)c4ccccc34)ccc2O[C@@H]1CN(C)S(=O)(=O)c1ccc(F)cc1` gave FGF22 binding inactive, MLL AF4-AF9 inh 0.4, Ecoli rRNA inh -4, Ecoli rRNA inh OD600 0 and Ecoli rRNA inh RFP 0.2.
Screening C[C@@H]1CCCCO[C@H](CN(C)Cc2ccc(C(F)(F)F)cc2)[C@H](C)CN([C@@H](C)CO)C(=O)c2cc(NC(=O)Cc3ccccc3)ccc2O1 returned FGF22 binding inactive, MLL AF4-AF9 inh 1.3, Ecoli rRNA inh -3, Ecoli rRNA inh OD600 -9 and Ecoli rRNA inh RFP 5.0.
Screening C[C@@H]1CN([C@H](C)CO)C(=O)c2cccc(NC(=O)CCCCCC(=O)Nc3ccccc3N)c2O[C@H]1CN(C)C returned FGF22 binding inactive, MLL AF4-AF9 inh 3.1, Ecoli rRNA inh 0, Ecoli rRNA inh OD600 2 and Ecoli rRNA inh RFP -0.8.
`C[C@H]1CN([C@@H](C)CO)C(=O)c2cc(C3=CCCCC3)cnc2O[C@@H]1CN(C)Cc1cccc(F)c1` gave FGF22 binding inactive, MLL AF4-AF9 inh 8.4, Ecoli rRNA inh -7, Ecoli rRNA inh OD600 -26 and Ecoli rRNA inh RFP 18.
COc1ccc(C(CNC(=O)c2cccc(S(=O)(=O)Nc3ccc(F)cc3)c2)N2CCOCC2)cc1 (configuration not stated) was read as FGF22 binding inactive, MLL AF4-AF9 inh -0.2, Ecoli rRNA inh -11, Ecoli rRNA inh OD600 -19 and Ecoli rRNA inh RFP 2.0.
For CO[C@H]1CN(C)C(=O)c2ccc(NC(=O)Nc3c(C)noc3C)cc2OC[C@H](C)N(CC2CC2)C[C@@H]1C the results were FGF22 binding inactive, MLL AF4-AF9 inh 0.1, Ecoli rRNA inh 3, Ecoli rRNA inh OD600 -1 and Ecoli rRNA inh RFP -3.3.

Reprinted at random: four records from the list.
For C[C@H](CO)N1C[C@H](C)[C@@H](CN(C)S(=O)(=O)c2ccc(Cl)cc2)Oc2ccc(NS(=O)(=O)c3ccc(Cl)cc3)cc2CC1=O the results were FGF22 binding inactive, MLL AF4-AF9 inh 1.8, Ecoli rRNA inh -1, Ecoli rRNA inh OD600 3 and Ecoli rRNA inh RFP 1.5.
`C[C@H]1CN([C@@H](C)CO)C(=O)Cc2cc(NC(=O)Cc3cn(C)c4ccccc34)ccc2O[C@@H]1CN(C)S(=O)(=O)c1ccc(F)cc1` gave FGF22 binding inactive, MLL AF4-AF9 inh 0.4, Ecoli rRNA inh -4, Ecoli rRNA inh OD600 0 and Ecoli rRNA inh RFP 0.2.
`C[C@H]1CN([C@@H](C)CO)C(=O)c2cc(C3=CCCCC3)cnc2O[C@@H]1CN(C)Cc1cccc(F)c1` gave FGF22 binding inactive, MLL AF4-AF9 inh 8.4, Ecoli rRNA inh -7, Ecoli rRNA inh OD600 -26 and Ecoli rRNA inh RFP 18.
COc1ccc(C(CNC(=O)c2cccc(S(=O)(=O)Nc3ccc(F)cc3)c2)N2CCOCC2)cc1 (configuration not stated) was read as FGF22 binding inactive, MLL AF4-AF9 inh -0.2, Ecoli rRNA inh -11, Ecoli rRNA inh OD600 -19 and Ecoli rRNA inh RFP 2.0.

Continuation:
For COc1ccc(S(=O)(=O)Nc2ccc3c(c2)C(=O)N([C@H](C)CO)C[C@@H](C)[C@@H](CN(C)S(=O)(=O)c2ccc(C)cc2)O3)cc1 the results were FGF22 binding inactive, MLL AF4-AF9 inh -13, Ecoli rRNA inh -5, Ecoli rRNA inh OD600 -13 and Ecoli rRNA inh RFP 4.4.
CO[C@@H]1CN(C)C(=O)c2ccc(NC(=O)C3CC3)cc2OC[C@H](C)N(C(=O)CN2CCOCC2)C[C@H]1C was read as FGF22 binding inactive, MLL AF4-AF9 inh -0.2, Ecoli rRNA inh 1, Ecoli rRNA inh OD600 3 and Ecoli rRNA inh RFP -0.9.
C[C@@H]1CN([C@H](C)CO)S(=O)(=O)c2ccc(C#Cc3ccccc3)cc2O[C@@H]1CN(C)S(C)(=O)=O was read as FGF22 binding inactive, MLL AF4-AF9 inh 0.8, Ecoli rRNA inh 4, Ecoli rRNA inh OD600 -13 and Ecoli rRNA inh RFP 12.
C[C@@H]1CN([C@H](C)CO)C(=O)c2cccc(NC(=O)c3nc4ccccc4s3)c2O[C@@H]1CN(C)Cc1ccncc1 was read as FGF22 binding inactive, MLL AF4-AF9 inh 5.6, Ecoli rRNA inh -8, Ecoli rRNA inh OD600 -4 and Ecoli rRNA inh RFP 2.4.
CNc1cccc(-c2ccc(N3CCN(C)CC3)nc2)n1 was read as FGF22 binding inactive, MLL AF4-AF9 inh 9.7, Ecoli rRNA inh 2, Ecoli rRNA inh OD600 8 and Ecoli rRNA inh RFP -0.1.
C[C@H](CO)N1C[C@H](C)[C@H](CN(C)C(=O)C2CCOCC2)Oc2ncc(-c3ccccc3F)cc2C1=O was read as FGF22 binding inactive, MLL AF4-AF9 inh -1.8, Ecoli rRNA inh -3, Ecoli rRNA inh OD600 -2 and Ecoli rRNA inh RFP -2.0.
O=c1[nH]c2cc(F)ccc2c2ccc(F)cc12 was read as FGF22 binding inactive, MLL AF4-AF9 inh -2.2, Ecoli rRNA inh 1, Ecoli rRNA inh OD600 0 and Ecoli rRNA inh RFP 1.0.
Screening O=C(C[C@@H]1CC[C@@H]2[C@H](COC[C@@H](O)CN2Cc2cccc(Cl)c2)O1)NCc1cccc(F)c1 returned FGF22 binding inactive, MLL AF4-AF9 inh -0.9, Ecoli rRNA inh -9, Ecoli rRNA inh OD600 -11 and Ecoli rRNA inh RFP 2.6.
CC1(C(=O)NS(=O)(=O)c2ccc(F)cc2F)CCN1C(=O)CC(c1ccccc1)c1ccccc1 (configuration not stated) was read as FGF22 binding inactive, MLL AF4-AF9 inh -0.9, Ecoli rRNA inh -1, Ecoli rRNA inh OD600 13 and Ecoli rRNA inh RFP 0.5.
For CCCNC(=O)N(C)C[C@@H]1Oc2cc(-c3cncnc3)ccc2S(=O)(=O)N([C@@H](C)CO)C[C@@H]1C the results were FGF22 binding inactive, MLL AF4-AF9 inh -1.9, Ecoli rRNA inh 4, Ecoli rRNA inh OD600 5 and Ecoli rRNA inh RFP -0.2.
For COc1ccc(CN(C)C[C@H]2Oc3ccc(NS(C)(=O)=O)cc3C(=O)N([C@@H](C)CO)C[C@@H]2C)cc1 the results were FGF22 binding inactive, MLL AF4-AF9 inh -1.8, Ecoli rRNA inh 3, Ecoli rRNA inh OD600 3 and Ecoli rRNA inh RFP -0.6.
CC=Cc1ccc2n(c1=O)C[C@H]1[C@H](CO)[C@@H](C(=O)N3CCCCC3)N(Cc3ccccn3)[C@@H]21 (mixture of isomers) was read as FGF22 binding inactive, MLL AF4-AF9 inh -1.9, Ecoli rRNA inh 1, Ecoli rRNA inh OD600 5 and Ecoli rRNA inh RFP 3.8.
Screening CCOc1cc2[nH]c(=O)n(CC3CCC(C(=O)NCCC(C)C)CC3)c(=O)c2cc1OCC (configuration not stated) returned FGF22 binding inactive, MLL AF4-AF9 inh -0.2, Ecoli rRNA inh 14, Ecoli rRNA inh OD600 14 and Ecoli rRNA inh RFP 6.4.
`C[C@@H]1CN([C@@H](C)CO)C(=O)Cc2cc(NC(=O)Nc3ccc(C(F)(F)F)cc3)ccc2O[C@H]1CN(C)S(=O)(=O)c1ccc(Cl)cc1` gave FGF22 binding inactive, MLL AF4-AF9 inh 1.4, Ecoli rRNA inh -2, Ecoli rRNA inh OD600 0 and Ecoli rRNA inh RFP 0.9.
`COCC(=O)Nc1ccc2c(c1)C(=O)N(C)[C@@H]1CC[C@@H](CC(=O)NCc3ccccc3)O[C@@H]1CO2` gave FGF22 binding inactive, MLL AF4-AF9 inh 0.8, Ecoli rRNA inh 4, Ecoli rRNA inh OD600 4 and Ecoli rRNA inh RFP -1.9.
COc1ccc(CN(C)C[C@@H]2Oc3ccc(NS(=O)(=O)c4ccccc4)cc3CC(=O)N([C@@H](C)CO)C[C@@H]2C)cc1 was read as FGF22 binding inactive, MLL AF4-AF9 inh -0.6, Ecoli rRNA inh 1, Ecoli rRNA inh OD600 -3 and Ecoli rRNA inh RFP 4.8.
Screening Cc1ccc(S(=O)(=O)Nc2ccc3c(c2)C(=O)N([C@@H](C)CO)C[C@H](C)[C@@H](CN(C)Cc2ccc(-c4ccccc4)cc2)O3)cc1 returned FGF22 binding inactive, MLL AF4-AF9 inh 1.2, Ecoli rRNA inh 2, Ecoli rRNA inh OD600 -1 and Ecoli rRNA inh RFP -1.2.
Screening c1ccc2cc(C3OCC4(CCCC4)CO3)ccc2c1 returned FGF22 binding inactive, MLL AF4-AF9 inh -4.5, Ecoli rRNA inh -9, Ecoli rRNA inh OD600 -21 and Ecoli rRNA inh RFP 1.4.

High-throughput results (PubChem BioAssay)

Not all compounds are listed; the hit share may differ from the screen's.
